PINK1 modulator: A Quantitative High throughput Screen to Identify Chemical Modulators of PINK1 Expression; Potency, µM (highest dose often 76.6 µM), without a hit: at the top dose activation (PINK1 increase), most hits filed as activators; PINK1 immunofluorescence, high-content cytometry, 24 h; actives 0.2% (n = 410,000); AID 624263, 2012; active = well fitted activation curve with a large enough effect; inconclusive = small, poorly fitted or top-dose-only effect; inactive = flat fitted curve, though single readings scatter; cell line not stated here;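 note: potency is the fitted concentration of half-maximal effect; % of control where 0% means no effect; nearly all actives have a fitted effect of over 65% in size; a mitochondrial uncoupler was the plate control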
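Fluorescence from anti-PINK1 antibody, together with nuclear and cell stains, was scanned on a laser-scanning cytometer. Before staining, stable-line cells were incubated 24 hours with compounds at 5 concentrations; primary antibody 12 h at 10 degrees C.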
ClpP mod: qHTS Assay for Activators of ClpP | ATP-dependent Clp protease proteolytic subunit (Bacillus subtilis (strain 168)), P80244 | purified B. subtilis ClpP, FRET peptide cleavage, 20 min | Potency, µM (doses to about 57.5 µM), without a hit: top-dose activity change, negative = active | actives 1.9% (n = 340,000) | AID 651965, 2013; active = well fitted falling curve with a large enough effect; inconclusive = small, poorly fitted or top-dose-only effect; inactive = no such curve, though single readings can be large or run the other way; note: potency is the fitted concentration of half-maximal effect; the source files actives as falling curves though it sought activators and does not explain the sign; nearly all actives have a fitted effect of over 65% in size; many hits overshoot -100%
Target sequence (P80244 whole entry, looked up): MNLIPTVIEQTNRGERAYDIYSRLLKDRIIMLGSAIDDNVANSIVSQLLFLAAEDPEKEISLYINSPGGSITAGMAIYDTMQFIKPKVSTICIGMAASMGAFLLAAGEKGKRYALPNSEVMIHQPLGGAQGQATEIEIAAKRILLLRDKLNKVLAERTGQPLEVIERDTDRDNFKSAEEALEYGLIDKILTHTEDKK
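ClpP 10 microg/mL final, pH 8 Tris/KCl buffer with BSA, glycerol, Tween-20; compound pinned in; FRET-FV substrate; RT 20 min; Ex320/Em430; ΔFRET vs ADEP 5.8 microM, DMSO, no enzyme.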
TRPV1 potentiator: HTS Assay for Compounds that Act as Potentiators of the Vanilloid Receptor 1. actives 0.02% (n = 320,000). potentiation, % at 8.33 µM. Transient receptor potential cation channel subfamily V member 1 (Homo sapiens), Q8NER1. AID 540277, 2011. TRPV1-expressing cells, Fluo-8 calcium influx, capsaicin EC20 potentiation; host cell line not named in the record; control for the full effect not named in the record; active means potentiation above 80%; inconclusive means 30% to 80%; inactive means below 30%; note: 0% is about no effect
Target sequence (Q8NER1 whole entry, looked up): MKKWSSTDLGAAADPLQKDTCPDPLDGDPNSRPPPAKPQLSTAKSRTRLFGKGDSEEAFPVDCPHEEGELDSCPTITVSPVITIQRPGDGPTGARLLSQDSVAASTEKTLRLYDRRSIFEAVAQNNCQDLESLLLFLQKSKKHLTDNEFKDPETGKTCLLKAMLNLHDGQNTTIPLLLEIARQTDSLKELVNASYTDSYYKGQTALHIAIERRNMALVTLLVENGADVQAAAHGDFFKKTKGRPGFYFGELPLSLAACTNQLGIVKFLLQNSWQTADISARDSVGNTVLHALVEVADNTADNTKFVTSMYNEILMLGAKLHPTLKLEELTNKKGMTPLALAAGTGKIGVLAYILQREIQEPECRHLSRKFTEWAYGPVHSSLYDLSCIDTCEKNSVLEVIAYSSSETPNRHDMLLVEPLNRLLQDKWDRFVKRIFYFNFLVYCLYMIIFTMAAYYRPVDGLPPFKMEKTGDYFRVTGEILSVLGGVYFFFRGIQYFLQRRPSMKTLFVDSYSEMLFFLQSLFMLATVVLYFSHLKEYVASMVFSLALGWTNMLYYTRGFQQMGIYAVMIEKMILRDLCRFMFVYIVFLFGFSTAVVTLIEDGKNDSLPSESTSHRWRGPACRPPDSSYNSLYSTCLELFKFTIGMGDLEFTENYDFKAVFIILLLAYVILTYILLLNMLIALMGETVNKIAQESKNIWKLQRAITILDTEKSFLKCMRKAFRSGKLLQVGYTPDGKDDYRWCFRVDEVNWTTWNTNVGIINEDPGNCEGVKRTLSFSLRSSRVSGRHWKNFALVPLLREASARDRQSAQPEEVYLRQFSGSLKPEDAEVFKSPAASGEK
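TRPV1-expressing cells were cultured overnight at 35.5C and loaded with Fluo-8 calcium dye for 40 to 90 min at room temperature. After a 10 s baseline, compound was added and calcium influx was read kinetically for 3 min (ex 480/em 520 nm).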
Sfp inh: qHTS Assay for Inhibitors of Bacillus subtilis Sfp phosphopantetheinyl transferase (PPTase). Potency, µM, without a hit: max response, negative = inhibition, hits mostly inhibitors. actives 3.5% (n = 310,000). Biochemical Sfp PPTase activity, qHTS; active = well fitted inhibition curve with a large enough effect; inconclusive = small, poorly fitted or top-dose-only effect, or another doubt; inactive = no such curve, though single readings can be large or run the other way;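 note: the enzyme is Sfp with the accession as filed and its product quenches rhodamine fluorescence; potency is the fitted concentration of half-maximal effect; 0% = enzyme reaction without inhibitor and -100% = no enzyme wells; top concentration of the series not given in the record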
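Buffer: 50 mM Hepes-Na pH 7.6, 10 mM MgCl2, 0.01% Nonidet P-40, 0.01% BSA. Enzyme 15 nM, pre-exposed to compound 15 min; substrates then added and fluorescence change tracked over 30 min.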
Menin-MLL FL inh: qHTS Assay for Inhibitors Targeting the Menin-MLL Interaction in MLL Related Leukemias: Competition With Fluorescein Labeled MLL-derived Peptide; Fluorescence polarization, fluorescein-MLL peptide displacement from menin; FP activity change, % at 61.4 µM; 290,000 tested, under 10 active; AID 1766, 2009; inconclusive = falling polarisation curve, or a change in total fluorescence; inactive = total fluorescence flat and polarisation flat or rising; no compound was filed as active; the % refers to the polarisation; negative = inhibition;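 note: % of control where 0% means no effect; inhibitors lower the polarisation; unlabelled MLL peptide was the positive control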
TRPML1 blocker: qHTS for Inhibitors of the Human Mucolipin Transient Receptor Potential 1 (TRPML1); actives 0.02% (n = 390,000); Mucolipin-1 (Homo sapiens), Q9GZU1; AID 624415, 2012; activity change, negative = inhibition, % (concentration not given with the values); TRPML1-inducible cells, Ca2+ dye fluorescence, FDSS; stronger effect = lower value; inhibition of EC80 agonist-evoked calcium signal; in the data active means activity change below about -50%; inconclusive means about -30% to -50%; inactive means above about -30%;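 note: stimulus is agonist 54-4 at its EC80 concentration; % is set by controls: 0 for no effect and ±100 for the full control effect; compound concentration not given in the record; the text of the record puts the active cut at -80%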
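TRPML1-DL cells, Tet-induced overnight (~16 h, 37 °C) at 1,500 cells/well, were loaded with Ca8 no-wash dye plus quencher for 45-90 min at room temperature. Compounds were pinned during FDSS kinetic reading; agonist 54-4 at EC80 (4 uM final) then added.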
TRPML1 agonist: qHTS for Agonists of the Human Mucolipin Transient Receptor Potential 1 (TRPML1); actives 0.12% (n = 410,000); activation, % (test concentration not listed); TRPML1-expressing cells, Ca2+ dye fluorescence, FDSS; host cell line not named in the record; reference of the full effect not given here; in the data active = activation above about 50%; inconclusive = about 30% to 50%; inactive = below about 30%; note: 0% is about no effect; the text of the record puts the active cut at 80%
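Tetracycline-induced TRPML1-DL cells are seeded and incubated overnight before loading with a no-wash Ca2+ dye and quencher. Agonist activity is taken from the 110 s fluorescence read following compound pin-transfer on an FDSS, before EC80 54-4 challenge.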
Numbers without * were called inactive; ? = inconclusive; nt = not tested or not shown; & = joins results of further samples; [ ] = another dose, or the depositor's remark.

The line under a structure holds: TRPML1 agonist, Menin-MLL FL inh, ClpP mod, TRPV1 potentiator, TRPML1 blocker, PINK1 modulator, Sfp inh
> COc1ccc(-c2nc(CS(=O)CC(=O)NCc3cccnc3)c(C)o2)cc1OC (centres undefined)
→ -0.1, 4.4, 3.6%, -13, -6, 1.6%, -10%
> COc1ccc(C)c2sc(=NC(=O)C(C)C)n(C)c12
→ -0.2, 2.7, -25%, nt, -2, 1.6%, 9%
> CC(=O)Nc1ccc(NC(=O)C(C)n2nc(C)c([N+](=O)[O-])c2C)cc1 (centres undefined)
→ -0.4, -3.2, 0.0%, -1, 2, 0.5%, -7%
> CCc1ccc(-n2c3nc(=O)[nH]c(=O)c-3cc3c(C)nn(-c4ccccc4)c32)cc1
→ -0.4, nt, ?, nt, -8, -0.6%, nt
> CCN(c1ccc(OCC(=O)OCC(=O)Nc2ccc(F)c(F)c2F)cc1)S(=O)(=O)c1ccccc1
→ -0.2, 1.0, -0.4%, -6, 6, 5.6%, 9%
> Cn1c(=O)cc(OCC(=O)NCCCN2CCN(Cc3ccccc3)CC2)c2ccccc21
→ 3.1, 4.8, 0.5%, 19, -12, -2.6%, -2%
> CCOc1ccc(N2C(=O)c3[nH]nc(-c4ccc(OC)cc4)c3C2c2cccs2)cc1 (centres undefined)
→ 2.5, nt, -10%, nt, 22, ?, nt
> Cc1ccc(C(=O)Nc2cccc(C(=O)NC3CCCC3)c2)cc1
→ 2.0, nt, 1.4%, -3, -4, 2.1%, 12%
> COC(=O)c1cc2oc(C)cc2n1Cc1ccc(Cl)cc1
→ 2.4, nt, -9.4%, nt, 22, -1.7%, nt
> Cc1ccn2c(/C=N/OCc3ccc(F)cc3)c(-c3ccc(Cl)cc3)nc2c1
→ 1.3, 3.4, ?, -6, 1, 8.3%, ?
> COc1cccc(N2C(=O)C(CC(=O)Nc3ccc(Cl)cc3)N(Cc3ccc4c(c3)OCO4)C2=O)c1 (centres undefined)
→ -0.3, nt, -0.2%, nt, 2, 0.1%, nt
> CC1=C(C(=O)N2CCOCC2)CC(CC(=O)NC2CCCC2)C(=O)N1CCCN1CCCC1=O (centres undefined)
→ 0.3, nt, 0.9%, nt, -5, 3.0%, nt
> O=C1COc2ccc(-c3csc(=Nc4ccc(OC(F)F)cc4)n3CC3CCCO3)cc2N1 (centres undefined)
→ 0.1, -1.8, -2.2%, -2, 7, -1.6%[38.3 µM], 8%
> Cc1[nH]c2ccccc2c1/C=N/NC(=O)CCC(=O)Nc1ccccc1
→ 1.3, 8.3, nt, 7, -7, -0.5%, 7%
> CCOC(=O)C(=O)N(C)c1c(CC)nc2c(OCc3ccccc3C)cccn12
→ 1.4, nt, 0.5%, nt, nt, 1.8%, nt
> Cc1ccc2[nH]c(CSc3nnc(NC(=O)COc4ccccc4F)s3)cc(=O)c2c1
→ 2.2, nt, -6.6%, nt, 6, 4.3%, nt
> O=C(c1cccc([N+](=O)[O-])c1)N1CCc2ccccc21
→ 0.0, -5.7, 1.0%, 3, 3, 0.6%, 4%
> O=C(O)c1sc2cc(C(F)(F)F)cnc2c1-c1ccccc1
→ -0.6, -0.5, -5.3%, nt, -16, 4.3%, -21%
> Cc1cc(N2CCOCC2)n2cc(-c3ccccc3)nc2n1
→ -0.6, 1.5, -2.1%, ?, 8, -2.0%, 13%
> COc1ccc(N2CCN(CC(O)COc3ccc(C)c(C)c3)CC2)cc1 (centres undefined)
→ 1.0&-0.2, 6.7, -4.3%&-3.5%, 1, ?, 0.6%&-1.4%, -1%
> CCn1c(CNC(=O)c2ccc(OC)c(OC)c2)nnc1SCC(=O)Nc1ccccc1
→ -0.5, 2.8, -1.9%, -2, 18, -2.0%, 2%
> COc1ccc(C2CC(=O)C3=C(C2)Nc2ncnn2C3c2ccccc2)cc1 (centres undefined)
→ 0.0, -2.3, -12%, 2, -4, -1.7%, 2%
> Cc1ccc(S(=O)(=O)N2CCOCC2)cc1C(=O)OCC(=O)N1CCCC1=O
→ -0.4, nt, nt, nt, 1, 1.9%, nt
> O=[N+]([O-])c1ccc(C(O)CN2CCN(C/C=C/c3ccccc3)CC2)cc1 (centres undefined)
→ -0.1, -1.1, nt, -4, 11, 1.0%, 3%
> CCN(CC)CCCNC(=O)c1ccc(N2CCCCC2)c(NS(=O)(=O)c2ccc(C)cc2)c1
→ -0.3, -4.5, -11%, -14, -12, 0.8%, ?
> Cc1ccc(NC(=O)c2c(C)nc3sc(C(=O)NC4CCCC4)c(N)c3c2-c2ccco2)c(C)c1
→ 1.7, 3.1, 1.3%, 13, 16, ?, -4%
> O=C(/C=C/c1ccccc1Cl)Nc1ccc(S(=O)(=O)Nc2ncccn2)cc1
→ 1.5, -3.2, 1.8%, 19, 22, 0.4%, 19%
> c1ccc(-c2csc3ncnc(NCc4ccccn4)c23)cc1
→ 1.3, 0.7, -0.4%, 5, 14, -3.8%, -29%
> COC(=O)c1c(NC(=O)c2ccc(S(=O)(=O)N3CCCCC3C)cc2)sc2c1CCN(C(C)C)C2 (centres undefined)
→ 1.1, nt, 15%, nt, -4, -1.0%, nt
> COc1cccc(CN2C(=O)CCC2(C)C(=O)NCCc2ccc(OC)c(OC)c2)c1 (centres undefined)
→ -0.6, 1.0, nt, -2, -10, 0.2%, 20%
> CC(=O)c1ccc(NC(=O)Nc2ccc3snnc3c2)cc1
→ 0.5, nt, -3.1%, nt, 17, ?, nt
> O=C(Nc1ccccc1Cl)N1CCN(Cc2ccc3c(c2)OCO3)CC1
→ -0.3, 5.3, nt, -13, 30, -0.7%, 6%
> Cn1nc(C(=O)OCC(=O)NC2CCS(=O)(=O)C2)c2ccccc2c1=O (centres undefined)
→ -0.4, 2.6, nt, 1, 10, 1.2%, 10%
> Cc1cc(C)cc(N(CC(=O)NC2CCCC2)S(=O)(=O)c2c(C)[nH]c(=O)[nH]c2=O)c1
→ -0.5, ?, -3.3%, 1, 37, 0.4%, 17%
> COC(=O)c1sc2ccc(C)cc2c1C(=O)OC
→ -0.3, nt, -0.7%, nt, -1, -0.4%, nt
> COc1cccc(NC(=S)N(Cc2ccc(Cl)cc2)Cc2ccc(C(=O)O)cc2)c1
→ -0.1, -1.5, 0.5%, 8, 29, 2.9%, 5%
> CN(CC(=O)Nc1ccc(F)c(F)c1F)C(=O)c1ccc(=O)[nH]c1
→ -0.8, nt, -2.1%, -15, 28, 0.5%, 21%
> CN(CCc1ccccn1)C(=O)CCC1CCCN(C(=O)c2cscn2)C1 (centres undefined)
→ 0.6, -3.8, 0.3%, -8, -3, -1.6%, 9%
> c1ccc(Cn2cc(-c3ccccc3)cn2)cc1
→ 0.1, nt, -0.4%, -7, -10, 2.5%, nt
> CCOc1ccccc1NC(=O)N1CCC(C(=O)c2ccc(F)cc2)CC1
→ 0.0, 0.4, 0.0%, 15, 38, -1.6%, 3%
> COc1ccc(C(CNC(=O)c2ccc(OCC3CCCO3)cc2)N2CCOCC2)cc1 (centres undefined)
→ -0.7, 0.8, -2.0%, 0, 0, -0.2%, -4%
> O=C(/C=C/c1ccccc1)Nc1cccnc1Cl
→ -1.4, 0.4, -1.7%, -30, -12, -1.3%, 0%
> COc1cccc(C(C)(O)c2nc(/C=C/c3ccccc3)cs2)c1 (centres undefined)
→ -0.2, nt, -31%, nt, nt, 13%, nt
> CC(=O)c1ccc(NC(=O)Oc2ccccc2)cc1
→ 0.0, 0.2, -1.3%, -3, 12, 2.0%, 9%
> CN1C(=O)C2(c3ccccc31)N(c1cccc(C(F)(F)F)c1)C(=O)CS2(=O)=O (centres undefined)
→ 1.4, nt, -3.3%, nt, -17, -4.9%, nt
> CCc1ccccc1NC(=O)CCc1c(C)nc(SC)nc1C
→ 0.2, 0.6, nt, 5, -5, 2.3%, 32%[activator]
> Cc1nc2ccccc2c(=O)n1NC(=O)c1cc(Br)ccc1Cl
→ nt, 1.5, -4.7%, -1, nt, -0.9%, 17%
> COCCNC(=O)CC(=O)N/N=C/c1cccc(C(=O)OC)c1
→ -0.7, -0.4, nt, 25, -10, -1.6%, 7%
> Cc1ccc(NS(=O)(=O)c2cc(Br)cnc2N)cc1C
→ 2.3, -3.2, 1.1%, 10, 1, 1.4%, 10%
> Cc1ccc(C)c(Cn2c(=O)n(CCCC(=O)NCc3ccco3)c(=O)c3sccc32)c1
→ 4.5, 5.9, 1.7%, -5, -22, 1.7%, 10%
> COc1ccc(OC)c(S(=O)(=O)NCc2nc3nc(C)cc(C)n3n2)c1
→ -0.4, -4.4, 0.8%, -2, 2, 0.7%, 17%
> Cc1ccc(Cl)cc1NS(=O)(=O)c1ccc(-n2cccn2)cc1
→ 0.6, -4.1, -1.6%, 6, 33, 6.8%, 8%
> Cc1ccc(-c2cc(C(=O)N3CCN(c4ccccc4)CC3)c3ccccc3n2)cc1C
→ -0.4, nt, -18%, nt, -13, 2.2%, nt
> O=C(NCc1ccc2c(c1)OCO2)c1ccc(-n2cnnn2)cc1
→ 0.2, -1.0, -2.6%, -5, 2, -1.3%[38.3 µM], 9%
> CC1(C)CC(=O)C=C(c2cccc3c2sc2ccccc23)C1
→ 2.7, nt, -1.5%, -9, 39, 2.8%, nt
> O=C(Nc1cccc2cccnc12)c1ccc(Cl)cc1Cl
→ nt, 9.8, 1.4%, 23, nt, 4.3%, 13%
> Cc1ccc(-n2c(C)cc(C(=O)CN3C(=O)C(=O)N(C4CCCC4)C3=O)c2C)cc1
→ 0.6, 1.4, nt, -15, 16, 3.0%, 4%
> COc1cc(NC(=O)CCc2c(C)nc3nc(-c4cc(OC)cc(OC)c4)nn3c2C)cc(OC)c1
→ -0.3, nt, -21%, nt, 28, 0.5%, nt
> O=C1CCCc2ccc3ccccc3c21
→ 3.7, nt, -0.5%, nt, -3, 3.3%, nt
> O=C(O)c1cccc(-n2cccc2C=C2C(=O)c3ccccc3C2=O)c1
→ 0.5, 7.9, nt, 2, -4, -1.1%, -13%
